Sfp inh: blocks B. subtilis Sfp PPTase activity. Q9F4F7. Biochemical Sfp PPTase activity, qHTS. Potency, µM, for the others: max response, negative = inhibition, most hits filed as inhibitors. hit rate 3.5% among 310,000; active means well fitted inhibition curve with a large enough effect; inconclusive means small, poorly fitted or top-dose-only effect, or another doubt; inactive means no such curve, though single readings can be large or run the other way;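 further: the enzyme is Sfp with the accession as filed and its product quenches rhodamine fluorescence; potency means the concentration at half of the fitted maximal effect; 0% = enzyme reaction without inhibitor and -100% = no enzyme wells; top concentration of the series not given in the record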
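After 15 min at room temperature with compound, 15 nM Sfp received 5 uM rhodamine-CoA plus 12.5 uM BHQ-2-ybbR (50 mM Hepes pH 7.6, 10 mM MgCl2). Rate came from the fluorescence difference over 30 min, ex 525/em 598 nm.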
ClpP mod: qHTS Assay for Activators of ClpP. purified B. subtilis ClpP, FRET peptide cleavage, 20 min. Potency, µM (series often up to 57.5 µM), for the others: top-dose activity change, negative = active. hit rate 1.9% among 340,000; active = well fitted falling curve with a large enough effect; inconclusive = small, poorly fitted or top-dose-only effect; inactive = no such curve, though single readings can be large or run the other way; further: potency means the concentration at half of the fitted maximal effect; the source files actives as falling curves though it sought activators and does not explain the sign; nearly all actives have a fitted effect of over 65% in size; many hits overshoot -100%
Target sequence (P80244 whole entry, looked up): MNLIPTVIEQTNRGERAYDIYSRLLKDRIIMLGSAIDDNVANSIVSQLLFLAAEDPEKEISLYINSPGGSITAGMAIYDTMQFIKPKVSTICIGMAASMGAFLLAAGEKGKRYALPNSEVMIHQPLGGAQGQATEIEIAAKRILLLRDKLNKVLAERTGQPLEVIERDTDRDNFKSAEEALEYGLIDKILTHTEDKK
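Purified B. subtilis ClpP, 10 microg/mL final in Tris/HCl pH8 with KCl, BSA, glycerol and Tween-20, cleaved an Abz/nitrotyrosine-quenched decapeptide. Fluorescence (ex 320, em 430) was read at 0 and 20 min at room temperature. Delta was normalized to 5.8 microM ADEP and DMSO/no-enzyme controls.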
CtBP-E1A inh: blocks the CtBP interaction with E1A; activity change, % (test concentration not listed); AlphaScreen GST-E1A/His-CtBP binding, 1536-well; hits give low values; control for the full effect not named in the record; hit rate 0.49% among 340,000; AID 651724; in the data active means activity change below about -65%; inconclusive means about -30% to -65%; inactive means above about -30%; further: on the % scale 0 is the no-effect control and ±100 the full control effect; compound concentration not given in the record
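Homogeneous bead-based format: GST-tagged E1A captured on glutathione donor beads, His-tagged CtBP on nickel acceptor beads; compounds precede bead addition by 2 h at 37 °C.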
gsp agonist: agonists of gsp mutant (McCune-Albright syndrome) | hit rate 0.13% among 340,000 | gsp mutant cells, cAMP HTRF, 30 min; control for the full effect not named in the record | AID 624287 | Potency, µM (series often up to 76.9 µM), inactives show at the highest dose activation (cAMP increase), usual class: activators; active = well fitted activation curve with a large enough effect; inconclusive = small, poorly fitted or top-dose-only effect, or another doubt; inactive = no such curve, though single readings can be large or run the other way; cell line not stated here;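 further: phosphodiesterase inhibitor Ro 20-1724 added with compounds to block cAMP breakdown; potency means the concentration at half of the fitted maximal effect; nearly all actives have a fitted effect of over 60% in size; about a fifth of the inactives were tested at one dose only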
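Cells stably selected in G418 were plated at 2000/well, grown 16-24 hr, then given compounds in DMSO with the PDE inhibitor […] (300 uM solution added) for 30 min at 37C; cAMP was read by HTRF.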
Menin-MLL FL inh: displaces fluorescein MLL peptide from human menin; Fluorescence polarization, fluorescein-MLL peptide displacement from menin; FP activity change, % at 61.4 µM; 290,000 tested, under 10 active; AID 1766; inconclusive = falling polarisation curve, or a change in total fluorescence; inactive = total fluorescence flat and polarisation flat or rising; no compound was filed as active; the % refers to the polarisation; negative = inhibition;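 further: % of control where 0% means no effect; inhibitors lower the polarisation; unlabelled MLL peptide was the positive control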
gsp antag: antagonizes gsp, the McCune-Albright syndrome mutation | gsp-mutant cells, cAMP HTRF, 30 min; control for the full effect not named in the record | Potency, µM (titrated, usually from 76.9 µM), for inactives: at the top dose activity change, negative = inhibition, hits mostly inhibitors | hit rate 0.4% among 340,000 | AID 624288; active = falling curve of any shape with a large fitted effect; inconclusive = falling curve, mostly with a smaller effect; inactive = flat or rising curve; cell line not stated here;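 further: intracellular cAMP measured with PDE inhibitor Ro 20-1724 present during compound exposure; potency means the concentration at half of the fitted maximal effect; on the % scale 0 is the no-effect control and ±100 the full control effect; nearly all actives have a fitted effect of over 65% in size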
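Measurement of cellular cAMP by homogeneous time-resolved fluorescence following a 30 min compound exposure at 37C. The PDE inhibitor […] was present throughout; the assay buffer was DPBS with 0.05% BSA and 0.005% Tween 20.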
TRPV1 PAM: human TRPV1 potentiation; hit rate 0.02% among 320,000; Q8NER1; TRPV1-expressing cells, Fluo-8 calcium influx, capsaicin EC20 potentiation; host cell line not named in the record; control for the full effect not named in the record; AID 540277; potentiation, % at 8.33 µM; active means potentiation above 80%; inconclusive means 30% to 80%; inactive means below 30%; further: 0% is about no effect
Target sequence (Q8NER1 whole entry, looked up): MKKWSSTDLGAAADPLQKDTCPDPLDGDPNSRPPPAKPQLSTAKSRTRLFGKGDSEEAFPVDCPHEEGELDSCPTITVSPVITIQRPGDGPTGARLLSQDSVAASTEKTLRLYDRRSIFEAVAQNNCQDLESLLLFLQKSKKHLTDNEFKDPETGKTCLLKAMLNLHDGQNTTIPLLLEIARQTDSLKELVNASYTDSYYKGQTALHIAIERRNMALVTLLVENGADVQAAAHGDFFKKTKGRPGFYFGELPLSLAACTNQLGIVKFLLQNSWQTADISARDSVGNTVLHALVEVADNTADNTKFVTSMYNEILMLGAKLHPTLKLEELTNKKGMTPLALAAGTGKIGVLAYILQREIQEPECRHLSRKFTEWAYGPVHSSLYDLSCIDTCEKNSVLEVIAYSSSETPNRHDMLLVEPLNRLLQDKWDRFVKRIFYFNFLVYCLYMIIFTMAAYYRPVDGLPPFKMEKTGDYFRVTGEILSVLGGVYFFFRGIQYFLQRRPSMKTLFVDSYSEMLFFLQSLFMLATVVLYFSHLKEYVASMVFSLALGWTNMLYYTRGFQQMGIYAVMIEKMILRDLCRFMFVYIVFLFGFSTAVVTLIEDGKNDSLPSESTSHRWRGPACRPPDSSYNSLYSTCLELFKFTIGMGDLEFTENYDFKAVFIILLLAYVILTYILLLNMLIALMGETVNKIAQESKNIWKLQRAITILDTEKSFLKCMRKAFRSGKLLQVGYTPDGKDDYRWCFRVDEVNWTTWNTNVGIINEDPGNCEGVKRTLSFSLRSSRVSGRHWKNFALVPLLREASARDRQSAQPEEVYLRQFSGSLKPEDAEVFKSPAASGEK
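Cells expressing TRPV1 were dye-loaded with Fluo-8 and read kinetically: 10 s baseline, 3 min after compound (agonist portion), then 2 min after EC20 capsaicin (allosteric enhancer portion). Calcium-bound dye fluorescence at 480/520 nm.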
* marks the source's active call; other numbers are inactive results; ? = inconclusive; . = no result given; & = joins results of further samples; [ ] = another dose, or the depositor's remark.

mol	Sfp inh	ClpP mod	CtBP-E1A inh	gsp agonist	Menin-MLL FL inh	gsp antag	TRPV1 PAM
O=C(NNc1ccccc1C(F)(F)F)c1cccs1	-1%	.	5	7%	0.8	8%	.
CC(=O)Nc1nc(CC(C)C)cc(-c2ccco2)c1C#N	4%	75%	3	?	-0.1	0%	12
CC(C)N1CCN(Cc2ccc(OC3CCCC3)cc2)CC1CCO (stereo not drawn)	21%	1.2%	-1	11%	-1.6	11%	-2
O=C(O)c1ccc(/C=C/c2ccc3cccc(O)c3n2)cc1	40µM*	.	-24	-1%	-0.2	-24%	-34
CCSc1nc2ccccc2n1CCC(=O)O	2%	2.1%	-1	-7%	1.2	3%	4
CN1CCN(C(=S)c2ccc(-c3cc(Cl)ccc3Cl)o2)CC1	?	1.0%	.	26%	2.1	-3%	-7
CCC(C)(C)C(=O)Nc1cc([N+](=O)[O-])ccc1F	-22%	-17%	-8	-31%	0.6	2%	14
CC(C)C(OC(=O)C1=Cc2ccccc2OC1)C(=O)NC1CCCC1 (stereo not drawn)	-1%	0.2%	0	18%[15.4 µM]	2.4	-21%	-21
Cc1ccc(-c2cc(-c3ccccc3)c(C#N)c(Br)n2)cc1	-18%	-22%	11	26%	0.7	18%	0
CO/N=C/Cc1c([N+](=O)[O-])c(C)nn1C	18%	.	6	-9%[15.4 µM]	-0.5	7%	-6
Cc1ccc(C)c(S(=O)(=O)N2CCCC2CNC(=O)C(=O)NC2CCCCCC2)c1 (stereo not drawn)	.	-9.4%	-3	9%[15.4 µM]	.	-5%	-3
COc1ccccc1OCC(=O)n1cc(C(=O)c2cc(Cl)cc(Cl)c2O)cn1	-8%	5.3%	-14	-16%	6.8	8%	10
CCNC(=O)/C(C#N)=C/c1c(N2CCN(c3ccc(OC)cc3)CC2)nc2c(C)cccn2c1=O	-7%	.	?	7%	-7.4	-7%	5
N/C(=N\OC(=O)c1ccc(Cl)cc1)c1nonc1N	11%	-0.4%	3	8%	-0.5	2%	-1
Cc1scc(C(=O)NNC(=S)NC(C)c2ccccc2)c1C (stereo not drawn)	-5%	2.0%	1	-24%	15	9%	-13
O=C(CCN1CCc2ccccc2C1)Nc1ccccc1F	?	-1.7%	-3	-33%[inhibitor]	-1.3	10%	-17
NC(=O)c1ccc(NC(=O)CSc2nnc(C3CC3)n2C2CC2)cc1	.	.	3	21%	.	10%	.
O=C(C[C@H]1C/C=C\CC[C@H](Cc2ccc(F)cc2)C(=O)OC[C@H]2CCCN2C1=O)N[C@@H](CO)Cc1ccccc1	.	1.5%	5	-41%[inhibitor]	.	-8%	.
CCOc1ccccc1CNn1nnnc1N	12%	-0.8%	5	-1%	-3.3	10%	-14
O=C(N/N=C1/C(=O)c2cccc3cccc1c23)c1ccc(Cl)cc1	45µM*	-22%	-6	20%[15.4 µM]	-3.4	-8%	-5
Cc1cc([N+](=O)[O-])ccc1NC(=O)C(C)N1CCN(c2ccccn2)CC1 (stereo not drawn)	10%	0.6%	-2	-4%[15.4 µM]	1.6	-4%	-2
CCc1nc2ccccc2c(C(=O)OCC(=O)N2CC(C)OC(C)C2)c1C (stereo not drawn)	.	-2.4%	-5	45%	.	12%	8
COc1ccc(N(C)S(=O)(=O)c2cccc(C(=O)OC(C)C(=O)NC3CCCCC3C)c2)cc1 (stereo not drawn)	.	-1.0%	4	-33%	.	-31%	8
Cc1csc2ncc(C(=O)NCc3ccco3)c(=O)n12	-9%	20µM*	1	?	-3.6	13%	26
COc1ccccc1CCNC(=O)CCn1c(=O)c2cccn2c2ccc(F)cc21	18%	1.8%&-16%	-11	?	.	-6%	?
O=C(COc1ccccc1F)NCCc1ccc2c(c1)OCCO2	.	.	4	?	.	-2%	.
Cc1cc(NC(=O)CSCC(=O)N2CCN(c3ccccc3)CC2)no1	.	2.0%	3	-10%[15.4 µM]	.	6%	.
Cc1cc(N)ccc1-c1cc2ccccc2oc1=O	16%	-0.1%	3	13%[15.4 µM]	-0.3	2%	-13
Cc1cn(C(=O)C(C)N2C(=O)c3ccccc3C2=O)c(C)n1 (stereo not drawn)	18%	-1.5%	11	1%	4.1	2%	?
O=C(CNC1CCCCC1)Nc1ccc(Cl)cc1	31%[activator]	-1.7%	.	-59%	2.6	7%	-11
CN(C)S(=O)(=O)c1ccc2oc(SCC(=O)NCC(F)(F)F)nc2c1	12%	-3.2%	-6	0%	3.9	0%	-6
CCCC(=O)Nc1ccc(-c2ccc(NC(=O)CCC)cc2)cc1	5%	0.8%	1	-21%	2.7	6%	-12
CCOC(=O)C1CCCN(C(=O)CSc2nnnn2C)C1 (stereo not drawn)	.	-1.0%	.	24%	.	6%	.
CC(C)c1nc(Cl)c(C#N)c2c1COC(C)(C)C2	2%	-0.6%	.	-2%	2.4	14%	-13
Cc1nc(NC(=O)c2cccnc2Cl)sc1C	.	0.4%	.	14%	.	0%	.
Cc1c(NS(=O)(=O)c2cccc(C(=O)NCc3ccncc3)c2)c(=O)n(-c2ccccc2)n1C	10%	1.9%	5	-14%	4.9	7%	13
CN(Cc1ccco1)S(=O)(=O)c1nnc(NC(=O)c2ccccc2)s1	?	-2.1%&0.2%	2	?	.	-7%	3
N#Cc1ccc(/C=C/C(=O)c2ccco2)cc1	?	1.1%	-4	-39%[inhibitor]	-9.0	11%	-3
CC1(C)CC(=O)C=C(c2cn[nH]n2)C1	.	-3.6%	0	6%	.	.	.
O=C(NCCCC1CCCC1)C1CCC(=O)N(Cc2ccc(Cl)cc2)C1 (stereo not drawn)	9%	0.7%	-10	?	.	-13%	-29
Cc1ccc2c(c1)N(C(=O)NC1CCCCC1)C(C)(C)CC2C (stereo not drawn)	9%	-3.8%	0	-7%	3.0	5%	1
COc1cc(/C=N/NC(=O)c2ccoc2C)cc(OC)c1O	-15%	-6.7%	-6	-3%[15.4 µM]	-0.7	-4%	1
CCOC(=O)N1CCN(C(=O)C(C)(C)Oc2ccc(Cl)cc2)CC1	8%	0.2%	3	8%	1.9	1%	.
COc1ccc(NC(=O)C2CCN(S(=O)(=O)c3ccc(OC)c(OC)c3)CC2)cc1	13%	-2.0%	-7	-7%	-3.1	-7%	0
CC(C)(C)C(=O)COC(=O)c1ccc(N)c([N+](=O)[O-])c1	13%	.	6	-15%	1.5	13%	-9
Cc1cc(NCCCN2CCOCC2)n2ncc(-c3ccccc3)c2n1	3%	-29%	1	9%	3.1	-4%	13
COCCNC(=S)N/N=C(\C)c1ccc(OC(F)F)cc1	-12%	-0.2%	-1	17%	0.2	-2%	15
NC1=NC(=Nc2ccc(Br)cc2)c2ccccc21	21%	.	4	3%[15.4 µM]	8.2	-29%	-7
NC(=O)c1cc2c3ccccc3ccn2c1-c1ccccc1	-23%	3.4%	.	11%	?	-1%	24
CC(C)Oc1nc(-c2ccccc2Cl)nc2ccccc12	-4%	.	25	-8%[15.4 µM]	2.9	-16%	-3
Cc1cc(C)nc(NCCC(=O)O)n1	15%	.	1	6%[15.4 µM]	0.7	8%	4
Cc1ccc(NC(=O)COC(=O)c2cccc(S(=O)(=O)N3CCCCCC3)c2)cc1	.	0.2%	6	17%	.	.	.
COc1ccc2nc(Cl)c(C#N)cc2c1	5%	.	3	24%	3.0	6%	5
Cc1ccc(-c2cc(C(=O)N/N=C/c3ccoc3)c3ccccc3n2)cc1	2%	130%	-9	?	.	-6%	0
C=CCOC(=O)C1=C(C)NC(=O)NC1C1CC=CCC1 (stereo not drawn)	15%	0.8%	-2	1%	1.2	-15%	-6
CC(=O)c1cn(CC(=O)Nc2ccc(C)cc2C)c2ccccc12	-21%	2.0%	11	17%	4.7	-11%	-5

Continued.
mol	Sfp inh	ClpP mod	CtBP-E1A inh	gsp agonist	Menin-MLL FL inh	gsp antag	TRPV1 PAM
CC1(COS(N)(=O)=O)CCCCC1	11%	1.4%	0	.	5.1	12%	-5
Cc1cc(C)n(C(=O)CCNC(=O)c2ccccc2Cl)n1	15%	-0.3%	5	-32%[inhibitor]	6.4	3%	25
COc1cccc(/C=C/C(=O)OCC(=O)NC(=O)NC2CCCC2)c1	.	3.8%	.	4%	.	-2%	1
C/C(=N\NC(=O)COc1c(C)cccc1C)c1cccs1	17%	.	20	20%[15.4 µM]	0.9	.	12
Cc1cccc(-c2noc(CN(C(=O)c3ccc(Br)o3)C(C)C)n2)c1	1%	0.6%	-6	?	5.4	-14%	-18
CN(C(=O)c1ccc(OC2CCN(C(=O)c3cccnc3)CC2)cc1)C1CCCCC1	22%	-0.9%	5	-20%	-0.7	-5%	9
CCOC(=O)c1sc2nc(C)nc(SCC(=O)N(C)C3CCS(=O)(=O)C3)c2c1C (stereo not drawn)	8%	-16%	0	16µM*	9.9	8%	4
COc1ccc(-c2csc(N3CCN(C(=O)c4ccco4)CC3)n2)cc1	-11%	0.3%	-13	-97%[inhibitor]	2.9	50µM*	.
COc1cccc2c(=O)c(C(=O)NCCc3ccccc3)c[nH]c12	.	4.3%	.	?	.	-3%	.
CCN(CC(=O)NCc1ccc2c(c1)OCO2)S(=O)(=O)c1ccc(F)cc1	7%	.	7	5%	5.6	-7%	4
CC(C)N1CCC(N2CCN(Cc3cnc(-c4ccccc4)s3)CC2CCO)CC1 (stereo not drawn)	1%	.	-2	-2%[15.4 µM]	-0.1	-12%	-1

Single records, as listed above. Order of values: Sfp inh, ClpP mod, CtBP-E1A inh, gsp agonist, Menin-MLL FL inh, gsp antag, TRPV1 PAM
Listed for CN(C(=O)c1ccc(OC2CCN(C(=O)c3cccnc3)CC2)cc1)C1CCCCC1 : 22%, -0.9%, 5, -20%, -0.7, -5%, 9
Listed for CC1(COS(N)(=O)=O)CCCCC1 : 11%, 1.4%, 0, ., 5.1, 12%, -5

Bioassay records deposited in PubChem BioAssay by National Center for Advancing Translational Sciences (NCATS).
